PMP22 txn prim = modulators of PMP22 gene transcription in S16 Schwann cells | Potency, µM (highest dose often 57.5 µM), inactives show top-dose activity change, negative = inhibition, usual class: inhibitors | S16 Pmp22-F2sN Schwann cells (luciferase reporters placed in the Pmp22 gene), FLuc/NLuc coincidence luminescence, 24 h | 43,000 tested, 2% active | AID 1508649; active = clear falling dose curves in both reporters; inconclusive = both reporters move, but less clearly or upward; inactive = either reporter flat; the % is the NLuc reporter signal; also: % is scaled to controls: 0 for no effect and ±100 for the full control effect; some results filed as inactive show a strong effect at the top dose
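Rat S16 Pmp22-F2sN cells, 500-1,000/well in phenol red-free DMEM + 10% FBS, compound-treated 24 h (37C, 5% CO2). Luminescence: FLuc read, Stop&Glo added, NLuc read.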
HTT prom inh = HTT promoter inhibition. HEK293 HTT promoter firefly luciferase reporter (activity 0% = vehicle and -100% = no light), 24 h. Potency, µM (doses to about 57.5 µM), for the others: at the top dose activity change, negative = inhibition, most hits filed as inhibitors. 48,000 tested, 0.93% active. AID 1508623; active = well fitted inhibition curve with a large enough effect; inconclusive = small, poorly fitted or top-dose-only effect; inactive = no such curve, though single readings can be large or run the other way; also: nearly all actives have a fitted effect of over 50% in size
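HEK293 Fluc reporter, 2,500 cells/well, 24 h pre-culture; cpds up to 57.5 uM final, 24 h 37 degrees C; Dual-Glo, 10 min RT; normalized vehicle = 0%, zero RLU = -100%.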
Numbers without * were called inactive; u = inconclusive; x = not tested or not shown; & = joins results of further samples; [ ] = another dose, or the depositor's remark. Potency is read from the fitted curve at half-maximal effect.

mol	PMP22 txn prim	HTT prom inh
CC1CCCCN1C(=O)CSc1nc2ccccc2nc1Cc1ccc(Cl)cc1 (stereo not given)	u	u
O=C(NCC(c1ccco1)S(=O)(=O)c1ccc(Cl)cc1)c1ccc(C(F)(F)F)cc1 (stereo not given)	u	u
COc1ccc(N2CCN(c3c4c(nc5nncn35)CCC4)CC2)cc1	13µM*	u
COc1ccc(CC(=O)NCc2ccc3c(c2)CCN3C(C)=O)cc1OC	-5%	-40%
COc1ccc(Cn2ccnc2SCC(=O)Nc2ccc(C)cc2C)cc1	-34%	-10%
Cc1cccc(NC(=O)c2cc3c(=O)n4cccc(C)c4nc3s2)c1C	u	-22%
CC[C@@]1([C@@H]2O[C@@H]([C@H]3O[C@@](O)(CO)[C@H](C)C[C@H]3C)C[C@H]2C)CC[C@H]([C@]2(C)CC[C@]3(C[C@H](O)[C@@H](C)[C@@H]([C@@H](C)[C@@H](OC)[C@H](C)C(=O)O)O3)O2)O1	x	u
CCOc1cc(CNC(=O)CSc2n[nH]c(-c3ccccc3)n2)cc(OCC)c1OCC	2%	-29%
CCC(=O)N1CCc2cc(Br)cc(S(=O)(=O)N3CCN(c4ccccc4OC)CC3)c21	-10%	1%
CCCCNC(=O)CCn1c(=O)c2cccn2c2cccnc21	-23%	4%
CCCn1c2ccccc2c2cnn(CC(=O)Nc3cc(OC)c(OC)c(OC)c3)c(=O)c21	-16%	-10%
CCCc1nnc(NC(=O)c2cc(=O)c3cc(Cl)ccc3o2)s1	-7%	5%

mol	PMP22 txn prim	HTT prom inh
CSc1ncc(C(=O)Nc2cccc(Cl)c2C)c(-c2ccccc2)n1	u	8%
NC(=O)CSc1nnnn1-c1cccc(O)c1	-2%	-12%
Cc1sc2ncn(CC(=O)N3CCN(c4ccccc4F)CC3)c(=O)c2c1S(=O)(=O)N1CCN(c2ncccn2)CC1	-6%	-11%
CC1CCN(S(=O)(=O)c2ccc3c(c2)N(CC(=O)N2CCN(c4ccccc4)CC2)C(=O)CO3)CC1	-31%	-24%
O=C(O)CCCCC1CCSS1 (stereo not given)	x	3%
CCOc1ccc(-c2nonc2NC(=O)c2oc3cc(C)ccc3c2C)cc1OCC	u	-16%
CC(=O)N1CCc2c(sc3c2c(=O)n(-c2cccc(Cl)c2C)c(=O)n3Cc2ccccc2C)C1	u	u
Cc1ccc2oc3c(c(=O)c2c1)C(c1ccc(OCC(N)=O)cc1)N(Cc1ccc2c(c1)OCO2)C3=O (stereo not given)	-10%	4%
COc1ccc(-c2ccc3c(N)c(C(=O)Nc4ccc(C)cc4C)sc3n2)cc1OC	-19%	u
CC(C)CCNC(=O)CN1C(=O)c2cccnc2Sc2ccccc21	-31%	-7%
CS(=O)(=O)Oc1ccc2c(NC(N)=O)c(C(=O)c3ccc(Cl)cc3Cl)oc2c1	x	229%[activator]
COc1ccc(-c2nn(C)c3sc(C(=O)N4CCN(c5cc(Cl)ccc5C)CC4)cc23)cc1OC	-15%	u

mol	PMP22 txn prim	HTT prom inh
Cc1nn(C(C)(C)C)c(OC(=O)c2c(F)cccc2F)c1Sc1ccccc1	-68%	u
CCn1cc(CNC(=O)c2cc(-c3ccc(C)c(C)c3)nc3ccccc23)c(C)n1	-68%	-14%
CCn1c(C(=O)NCc2ccc(OC(C)C)cc2)cc2oc3ccccc3c21	-11%	u
COc1cccc(-c2noc(CCCC(=O)NCc3ccco3)n2)c1	3%	8%
COc1ccc(CCNC(=O)CS(=O)Cc2nc(-c3ccc(C)cc3)oc2C)c(OC)c1 (stereo not given)	u	-28%
COc1ccccc1-c1cc(NC(=O)COc2ccccc2Cl)n(-c2ccccc2)n1	-3%	-3%
CCc1ccc(C(=O)CC2(O)C(=O)N(Cc3ccc(C)cc3)c3ccccc32)cc1 (stereo not given)	u	-25%
CCc1ccc(NC(=O)CSc2nnc(-c3nonc3NC(C)=O)n2-c2ccccc2)cc1	10%	u
CCN(C(=O)Cn1ncc2c1-c1cc(C)ccc1OC2)c1cc(Cl)ccc1OC	-8%	u
CCn1ccc2c(OCC(=O)NCc3ccc(C)cc3)cccc2c1=O	-3%	-2%
Cc1cccc(C(=O)Nc2nnc(SCc3cc(=O)n4cccc(C)c4n3)s2)c1	-3%	6%
Cc1cccc(N2CCN(C(=O)Cc3c(C(=O)O)c(C)cn3C)CC2C)c1 (stereo not given)	u	-21%

mol	PMP22 txn prim	HTT prom inh
Cc1c(Cl)cccc1NS(=O)(=O)c1ccc(NS(=O)(=O)c2ccc3c(c2)OCCO3)cc1	7%	-28%
COc1ccc2c(c1)Cc1sc(NC(=O)c3cccc(Br)c3)nc1-2	-35%	-30%
CCN(CCCNC(=O)Cn1ncc2c([nH]c3ccc(C)cc32)c1=O)c1cccc(C)c1	2%	1%
CC1=C(C(=O)Nc2ccccc2)C(c2cccnc2)n2nc(SCc3ccccc3F)nc2N1 (stereo not given)	-13%	4%
Cn1ccnc1SCC(=O)Nc1cccc(Br)c1	11%	-2%
COc1ccc(C(=O)N(Cc2ccco2)Cc2ccccc2F)cc1Cl	-13%	u
Nc1c[n+](N2CCOCC2)no1	x	-2%
Cc1ccn2c(Nc3ccc4c(c3)OCCO4)c(-c3ccc(N(C)C)cc3)nc2c1	-9%	58%[activator]
CC(=O)N1CCc2c(sc3c2c(=O)n(-c2ccc(F)cc2)c(=O)n3Cc2cc(C)ccc2C)C1	-4%	0%
CCOc1ccc(-n2nc3cc(C)c(NC(=O)CC)cc3n2)cc1	1%	-13%[11.5 µM]
O=C(c1ccc2c(c1)N(Cc1cccc(F)c1)C(=O)c1ccccc1S2)N1CCC2(CC1)OCCO2	10%	-1%
O=C(O)c1ccc(OCCCOc2ccc(C(=O)O)cc2)cc1	x	11%

mol	PMP22 txn prim	HTT prom inh
Cc1ccc(-n2c(SCC(N)=O)nc3c([nH]c4ccccc43)c2=O)cc1	-11%	-14%
CC(C)C(=O)Nc1nnc(S(=O)(=O)N2c3ccccc3CC2C)s1 (stereo not given)	-4%	-8%
Cc1cccc(NC(=O)CSc2nc3c(oc4ccccc43)c(=O)n2Cc2ccco2)c1	u	-14%
CCC(C(=O)NC1CCCCC1)n1c(SCc2ccc(F)cc2)nc2ccncc21 (stereo not given)	-33%	u
O=S(=O)(NCCc1csc2nc(-c3ccccc3)nn12)c1cc(F)ccc1F	-18%	-13%
CC1=C(C(=O)Nc2ccc(C)cc2C)C(c2cccs2)n2nc(SCc3ccc(Cl)cc3)nc2N1 (stereo not given)	6%	11%
CCn1cc(C(=O)N2CCN(c3ccc(F)cc3)CC2)c(=O)c2cc(S(=O)(=O)N(C)C3CCCCC3)ccc21	-29%	-8%
COc1ccc(-c2nc3ccccc3s2)cc1NC(=O)c1ccccc1F	-4%	-1%
COc1ccc(OC)c(NC(=O)CCCOc2cc(=O)n(C)c3ccccc23)c1	-25%	-19%[11.5 µM]
Cc1cccc(C(=O)Nc2ccc(OCc3cc(=O)n4ccsc4n3)cc2)c1	-2%	3%
CCC(C(=O)Nc1cccc(-c2cn3cccnc3n2)c1)c1ccccc1 (stereo not given)	u	-20%
CCOC(=O)c1cccc(NC(=O)Cn2c(=O)nc(-c3ccccc3F)c3cc(Cl)ccc32)c1	-25%	-20%

Molecules above that have a COOH group (4):
mol	PMP22 txn prim	HTT prom inh
CC[C@@]1([C@@H]2O[C@@H]([C@H]3O[C@@](O)(CO)[C@H](C)C[C@H]3C)C[C@H]2C)CC[C@H]([C@]2(C)CC[C@]3(C[C@H](O)[C@@H](C)[C@@H]([C@@H](C)[C@@H](OC)[C@H](C)C(=O)O)O3)O2)O1	x	u
O=C(O)CCCCC1CCSS1 (stereo not given)	x	3%
Cc1cccc(N2CCN(C(=O)Cc3c(C(=O)O)c(C)cn3C)CC2C)c1 (stereo not given)	u	-21%
O=C(O)c1ccc(OCCCOc2ccc(C(=O)O)cc2)cc1	x	11%

(continued)
mol	PMP22 txn prim	HTT prom inh
COc1ccc(-n2ncc(C(=O)NCc3cccs3)c2C2CCN(C(=O)OC(C)(C)C)CC2)cc1	-4%	-9%
COc1ccc(NC(=O)CCN2CCN(c3cccc(Cl)c3)CC2)cc1	-17%	-8%
Cc1cc(C)nc(NS(=O)(=O)c2ccc(NC(=O)c3ccccc3O)cc2)n1	21%	-10%
CCOc1ccc2c(c1)[C@@H]1C=CC[C@@H]1[C@H](c1ccccc1Cl)N2	u	-18%
CC(C)C(=O)Nc1ccc2nc(SCC(=O)N3CCOCC3)sc2c1	-25%	2%
COc1cccc(CNC(=O)Cn2ncn3c(cc4ccccc43)c2=O)c1	-16%	7%
CC(=O)c1ccc(NC(=O)Cn2c(=O)nc(-c3ccccc3)c3ccccc32)cc1	29%	-17%
COc1ccc(Cn2ccc3nc(C)c(C(=O)N4CCN(c5ccccc5OC)CC4)cc3c2=O)cc1	u	u
O=C(CSc1nnc(COc2ccccc2)o1)Nc1cc(C(F)(F)F)ccc1Cl	-10%	-10%
COc1cccc(NC(=O)Cn2nnc(C(=O)NCCc3ccccc3)c2N)c1	-10%	7%
COc1cc(OC)c(NS(=O)(=O)c2ccc3c(c2)CCCN3C(C)=O)cc1Cl	u	u
O=c1[nH]cnc2[nH]ncc12	x	-15%&2%

Taken from above:
O=c1[nH]cnc2[nH]ncc12 in HTT prom inh → -15%&2%
CCOc1ccc2c(c1)[C@@H]1C=CC[C@@H]1[C@H](c1ccccc1Cl)N2 in HTT prom inh → -18%

Additional results follow.
mol	PMP22 txn prim	HTT prom inh
CCOC(=O)c1cccc(NC(=O)C2CCN(c3nnc(C)c4c(C)n(-c5ccccc5)nc34)CC2)c1	u	-10%
CCN(CC)CCN(C(=O)c1ccco1)c1nc2c(C)cccc2s1	-40%	25%
Cc1ccc(-c2nc3ccccn3c2Nc2ccccc2C)s1	0%	-1%
Cc1cccc(NC(=O)c2ccc3c(c2)CCN3S(=O)(=O)c2ccccc2)c1C	u	-29%
O=C(C1CC1)N1CCc2cc(Br)cc(S(=O)(=O)N3CCN(c4ccccc4)CC3)c21	-2%	-7%
CCOC(=O)c1cccc(NC(=O)c2cc(S(=O)(=O)N3CCCC(C)C3)cn2C)c1 (stereo not given)	-3%	u
Cc1cc(C)n(-c2nc3ccccc3nc2Nc2ccc(C(C)C)cc2)n1	4%	3%
CCc1cccc(C)c1NC(=O)c1cc(S(=O)(=O)N2CCOCC2)cn1C	-10%	-1%
CCCN(CCC)CCCNC(=O)c1cn(CC)c2ccc(S(=O)(=O)N(C)C3CCCCC3)cc2c1=O	u	0%
CCc1cnc2c(c1SCC(=O)Nc1ccc(Cl)cc1)c(=O)n(C)c(=O)n2C	u	-19%
Cn1c(-c2ccccc2)cnc1NCc1ccccc1O	3%	8%
Cc1cc(NC(=O)Nc2ccc(N(C)C)cc2)c2cc(F)cc(F)c2n1	x	1%

mol	PMP22 txn prim	HTT prom inh
Cn1c(=O)c2c(nc(SCC(=O)Nc3ccccc3F)n2Cc2ccc(Cl)cc2)n(C)c1=O	-29%	-3%
CNS(=O)(=O)c1cn(CC(=O)Nc2cccc(C(F)(F)F)c2)cc1S(=O)(=O)NC	-10%	4%
COc1ccc(S(=O)(=O)NCCc2sc(C)nc2C)cc1	u	u
Cc1cc(C)n2c(Nc3ccccc3C)c(-c3cccs3)nc2n1	-24%	-4%
CCCCOC(=O)c1ccc(OC(=O)c2sc3ncn(Cc4ccccc4Cl)c(=O)c3c2C)cc1	u	-19%[11.5 µM]
Cc1ccc(C(C)C)c(OCC(=O)Nc2cccc(NC(=O)c3ccco3)c2)c1	u	u
COc1ccc2[nH]cc(CCNC(=O)Nc3cccc(F)c3)c2c1	-28%	-4%
Cc1nc2nc(NC(=O)CC(C)C)[nH]n2c(=O)c1Cc1ccccc1	u	-12%
O=C(NC1CCCCC1)c1cc(Nc2cccc(C(F)(F)F)c2)nc2ccccc12	-16%	-21%
Cc1c(C(=O)N(C)Cc2ccccc2)sc2nc(-c3ccc(F)cc3)cn12	u	u
CCCCC(=O)OCc1cc(=O)n2nc(C3CC3)sc2n1	-3%	-1%
Cc1ccc(Cl)cc1N1CCN(C(=O)c2cn(C)c3ccc(S(=O)(=O)N(C)C4CCCCC4)cc3c2=O)CC1	9%	-2%

mol	PMP22 txn prim	HTT prom inh
CCc1ccccc1NC(=O)C1CCN(S(=O)(=O)c2cn(C)cn2)CC1	-30%	-12%
CCC1=Nc2cc(C(=O)NC(C)c3ccccc3)ccc2Sc2ccc(Cl)cc21 (stereo not given)	u	-17%
COc1ccccc1NC(=O)c1sc2nc3n(c(=O)c2c1C)N=C(c1cccc(Br)c1)CS3	26%	13%
COc1ccc(CCNC(=O)c2cn(C)c3ccc(S(=O)(=O)N(C)C)cc3c2=O)cc1OC	-17%	3%
COc1ccc(-c2cnnn2-c2ccc(NC(=O)c3c(F)cccc3F)cc2)cc1	u	u
CCC(C(=O)NC1CCCCC1)n1nc(C)c2sc3ccccc3c2c1=O (stereo not given)	11%	-6%
CCOC(=O)c1c(C)[nH]c(CCC(=O)NCc2ccc(OC)c(OC)c2)c1C	1%	3%

Screens: PubChem BioAssay, National Center for Advancing Translational Sciences (NCATS)
